# Rce1 inhib: yeast Ras-converting enzyme inhibition | Q03530 | yeast membranes, quenched prenylated peptide cleavage fluorescence | calls only | actives 0.27% (n = 290,000) | AID 2563;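 active = fall in fluorescence gain of 50% or more versus controls, with final raw signal at or below 3038400; inconclusive = same 50% fall but final raw signal above 3038400; inactive = fall in fluorescence gain under 50%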;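 also: plate controls were neutral control wells for no effect and wells lacking membranes for full effect; tested at 10 µM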
# HIV Env fusion: inhibitors of HIV Env-mediated cell fusion; HeLa-JRFL Env/CEM21 cell fusion, luciferase; inhibition, % at 12.3 µM; actives 1.1% (n = 360,000); AID 651610;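 active = mean replicate inhibition score of at least 50 and every replicate individually at or above 50; inconclusive = only one of the two criteria met; inactive = mean below 50 and not all replicates reaching 50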;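 also: 0% = plate neutral controls and 100% = maraviroc near 300 nM; one replicate is shown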
# eIF4H inh: inhibitors of RNA binding by human eIF4H. Q15056. eIF4H fluorescence polarization binding assay. inhibition, % at 35 µM. actives 0.94% (n = 290,000). AID 2012;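 active = 50% or more with normal probe brightness, or confirmed in later tests; inconclusive = above 50% with abnormal brightness, or retests that disagree; inactive = below 50% or failed in later tests; about a fifth of its hits are not listed in these tables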;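 also: calls also rest on retests at 20 µM and on dose response follow-up; 0% = protein and probe with vehicle and 100% = probe without protein; strong numbers were not always called active; many hits fall short of the cut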
# UUG fidelity: alters start codon recognition fidelity in yeast; S. cerevisiae UUG-firefly luciferase reporter, luminescence/redox ratio; activity score, % at 18.7 µM; actives 0.13% (n = 350,000); AID 602363;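 active = replicate mean at a twofold rise or more, about +100% in these data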;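 also: firefly luciferase made from a UUG start codon reports start codon fidelity; reporter light over untreated wells divided by growth signal over untreated wells; some hits fall short of that in this replicate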
# PABP polyA inh: blocks human PABP binding to poly(A) RNA; inhibition, % at 35 µM; actives 1% (n = 290,000); P11940; fluorescence polarization; AID 2014;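 active = 50% or more with normal probe brightness, or confirmed in later tests; inconclusive = above 50% with abnormal brightness, or retests that disagree; inactive = below 50% or failed in later tests; about a fifth of its hits are not listed in these tables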;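 also: calls also rest on retests at 20 µM and on dose response follow-up; controls were probe without protein and protein plus probe with vehicle; some compounds called inactive have numbers as strong as hits; many hits fall short of the cut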
# Target sequence (P11940 whole entry, looked up): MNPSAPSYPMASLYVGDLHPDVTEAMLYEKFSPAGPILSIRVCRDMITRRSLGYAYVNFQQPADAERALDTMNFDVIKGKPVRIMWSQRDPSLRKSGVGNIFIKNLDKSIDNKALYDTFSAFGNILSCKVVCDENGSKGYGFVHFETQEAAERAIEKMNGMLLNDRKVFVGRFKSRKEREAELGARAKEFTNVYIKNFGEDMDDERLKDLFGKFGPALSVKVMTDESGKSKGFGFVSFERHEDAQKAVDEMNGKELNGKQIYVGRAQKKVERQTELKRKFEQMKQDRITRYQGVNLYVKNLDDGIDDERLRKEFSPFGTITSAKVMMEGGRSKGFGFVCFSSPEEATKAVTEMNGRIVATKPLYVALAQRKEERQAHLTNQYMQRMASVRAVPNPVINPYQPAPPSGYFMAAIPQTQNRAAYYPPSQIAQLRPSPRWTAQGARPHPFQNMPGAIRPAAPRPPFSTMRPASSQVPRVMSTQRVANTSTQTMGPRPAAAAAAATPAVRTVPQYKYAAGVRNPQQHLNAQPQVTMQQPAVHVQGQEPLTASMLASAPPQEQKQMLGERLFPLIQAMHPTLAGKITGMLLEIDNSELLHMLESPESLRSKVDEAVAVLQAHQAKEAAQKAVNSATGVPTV
# MT1-MMP act inh: blocks activation of human MT1-MMP; AID 651647; actives 0.061% (n = 360,000); HT1080 RFP-PRO-GFP cells, GFP/RFP ratio fluorescence, overnight; percent of plate control window, DMSO zero; P50281; GFP/RFP ratio change, % at 20 µM;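 active = GFP/RFP ratio change of at least 30% with cell ATP level not reduced by more than half and red fluorescence within 50% of control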; also: strong numbers were not always called active
#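 Compound: 20 µM single dose, 1% DMSO / System: HT1080 RFP-PRO-GFP cells / Controls: DMSO and RFP-L50D-GFP cell wells / Read-out basis: GFP/RFP fluorescence ratio / Schedule: overnight compound exposure at 37 °C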
# CSC inhib: cancer stem cell inhibition | cancer stem cell-like cells viability, luminescence | inhibition, % at 7.5 µM | actives 1.1% (n = 300,000) | AID 2717;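 active = mean at 75% or more and at least half the replicates too; inconclusive = mean and replicates disagree; tested in HMLE shEcad cells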;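 also: 0% = median of negative and 100% = median of positive control wells; the first replicate is given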
# eIF4H inh retest: recorded beside eIF4H inh, whose call it bears; inhibition, %; compound at 20 µM; confirmation average;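 mean of two retest wells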
# PABP polyA inh retest: also measured in PABP polyA inh; calls as there; inhibition, %; compound at 20 µM; confirmation repeats;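 mean of two retest wells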
# MT1-MMP act inh RFP: recorded beside MT1-MMP act inh, whose call it bears; RFP signal change, %; measured here: RFP expression control read;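 0 = vehicle wells; hits needed this value within 50% of zero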
# Numbers without * were called inactive; i = inactive; u = inconclusive; x = not tested or not shown.
SMILES,Rce1 inhib,HIV Env fusion,eIF4H inh,UUG fidelity,PABP polyA inh,MT1-MMP act inh,MT1-MMP act inh RFP,CSC inhib,others
COc1ccc(S(=O)(=O)NCC2CCCO2)c(Cl)c1Cl (stereo not given),i,-8.2,-7.5,4.6,-1.6,-0.2,-3.6,-6.2,
CC(NC(=O)C1CCCN1S(=O)(=O)c1cccc2cccnc12)c1ccccc1 (stereo not given),i,-12.6,-7.1,6.6,-0.3,0.1,1.3,-15.7,
O=C(NCCN1CCOCC1)c1nn2c(c1Cl)NC(c1ccccc1)CC2C(F)(F)F (stereo not given),i,4.6,81.7,2.1,3.0,-2.0,3.5,-9.5,eIF4H inh retest=48.4;PABP polyA inh retest=1.2
C=CCn1c(CCC(O)COCCCCC)n[nH]c1=S (stereo not given),i,11.2,0.6,-18.5,-0.4,13.0,-1.2,-13.1,
COCC(O)CSc1nc(C)[nH]c1[N+](=O)[O-] (stereo not given),i,x,-6.7,7.2,-6.8,1.7,6.9,-6.2,
CCN(CC)C(=O)CSc1nc2ccccc2o1,i,x,-1.3,-7.0,-5.9,2.9,1.9,3.4,
COc1ccc(N(C(=O)c2snc(C(N)=O)c2N)C(C(=O)NCC2CCCO2)c2ccc3ncccc3c2)cc1OC (stereo not given),i,-0.4,-5.0,-13.9,2.5,0.5,2.7,-7.5,
Cc1ccsc1/C=C/c1n[nH]c(=O)c(C#N)c1C,x,6.6,9.2,0.5,6.2,1.0,1.3,0.0,
Cc1ccc(N2C(=O)NC(NC(=O)c3ccc(Cl)cc3)(C(F)(F)F)C2=O)cc1 (stereo not given),i,3.7,-9.9,-2.8,-6.1,0.8,-1.8,18.8,
COc1ccccc1NC(=O)C1=C(C)Nc2nnnn2C1c1cccc(C)c1 (stereo not given),i,-9.4,3.4,-13.1,-9.8,7.1,5.6,x,
CCCCc1cc(=O)oc2cc(C)cc(OC(C)C(=O)NCC3CCC(C(=O)O)CC3)c12 (stereo not given),x,x,1.6,-13.3,6.0,4.7,-0.3,-0.5,
COc1ccc(Cl)cc1NC(=O)CSc1nnc(COc2ccccc2)n1C,i,19.5,-8.6,-21.5,-14.7,3.4,-4.2,2.9,
CCCCn1c(=O)cc(C)n(-c2ccccc2)c1=O,i,7.7,x,x,x,-2.5,-2.3,-7.5,
O=C(COC(=O)[C@H](Cc1ccccc1)N1C(=O)c2ccccc2C1=O)Nc1ccc2c(c1)OCO2,i,x,15.1,x,-5.4,2.0,2.8,-3.1,
COC(=O)C1=C[C@@H](C(=O)OC)[C@@H]2C3=C(C(=O)[C@]2(C)NC(=O)c2ccccc2)[C@H](C)n2c(=O)n(C)c(=O)n2[C@@H]3C1,i,-2.1,x,17.3,x,0.8,2.8,-10.2,
COC1CCN(C(=O)c2cc(COc3cc(C)ccc3C)on2)CC1,x,-3.7,x,-17.9,x,3.0,0.9,x,
CC(C)(C)OC(=O)NCCc1nnc(SCC(N)=O)o1,i,4.5,1.6,-13.1,-5.7,0.2,1.1,-8.0,
CCNC(=S)N/N=C/c1ccc(OCC(=O)Nc2ccc(OC)cc2)c(OC)c1,i,27.9,1.3,-17.1,-4.4,-5.9,-2.0,0.6,
CSc1ncccc1C(=O)OCc1ccc(C#N)cc1,i,-105.7,-0.6,-7.8,-1.7,3.1,1.8,-6.2,
O=C(CCC(=O)N1CCOc2ccccc21)NCCN1CCOCC1,i,-1.6,7.8,-27.0,-8.3,0.3,4.7,-12.6,
Cc1nc(NC(=O)c2oc3ccccc3c2C)sc1C(=O)N(C)C,i,-34.0,0.2,-10.5,8.5,9.3,4.0,-7.7,
O=C1C=C(Nc2ccccc2)CC(c2ccccc2)C1 (stereo not given),i,6.0,-6.7,x,-13.6,0.9,-0.4,20.3,
CN(C)/C=N/c1sc2c(c1C(N)=O)CCCC2,i,-16.0,-5.3,-16.0,-9.7,-1.4,1.5,x,
O=C(O)CCN1C(=O)c2ccc(NC(=O)C(c3ccccc3)c3ccccc3)cc2C1=O,i,-31.0,4.4,x,-12.1,1.0,4.2,-28.4,
CC(=O)c1cc(C(=O)Nc2ccccc2C(=O)O)oc1C,i,x,-4.0,-8.2,44.9,3.2,4.1,9.4,
CCn1cc(C(=O)OCC(=O)c2cc(C)n(-c3ccccc3F)c2C)c(=O)c2ccc(C)nc21,i,x,1.2,-2.8,-2.4,6.7,3.4,-0.2,
O=C(Nc1ccc2c(c1)OCCO2)c1ccc(S(=O)(=O)N2CCCCC2)cc1,i,14.8,-5.3,-13.0,0.3,-3.2,-9.4,-1.2,
CCCn1nc(C(=O)Nc2cccc(S(=O)(=O)N(C)c3ccccc3)c2)c2ccccc2c1=O,x,x,x,-8.1,x,3.8,-8.4,-3.6,
COc1ccc(-c2cn[nH]c2-c2ccc(O)cc2O)cc1,i,34.2,-7.4,-16.1,7.6,-14.4,-13.2,-6.3,
O=C(Nc1cccc(S(=O)(=O)N2CCOCC2)c1)c1ccc(=O)[nH]c1,x,12.9,x,-13.3,x,6.4,2.9,-14.1,
COc1ccc(NC(=O)c2cccc(Cn3cc(Br)c([N+](=O)[O-])n3)c2)c(C)c1,x,7.8,-1.5,x,6.0,0.3,-8.8,3.3,
Cc1c(NC(=O)CSc2nc3ccccc3[nH]2)c(=O)n(-c2ccccc2)n1C,i,-52.4,-1.2,-11.3,-0.1,7.1,-0.1,-13.4,
CCN(CCO)c1nc(N2CCCCC2)c2cnn(C)c2n1,i,13.7,1.1,-26.9,11.2,-0.5,2.1,27.6,
Cc1cccc(NC(=O)Nc2ccccn2)c1C,i,-24.5,-16.2,-14.8,5.4,-3.5,-6.0,0.3,
Cc1noc(C)c1COC(=O)CCc1nc2ccccc2c(=O)[nH]1,i,-16.9,-1.8,-15.0,-12.5,-3.9,6.1,-6.0,
O=C(Nn1cnnc1)c1ccc([N+](=O)[O-])cc1Cl,x,16.0,x,5.4,x,1.5,-0.1,0.2,
Cc1c(C)n(C)c2ccc(C(=O)NCCCN3CCCCC3)cc12,i,0.9,-11.7,-5.6,1.7,-0.6,3.4,4.5,
CCOc1ccc(Cl)cc1CNCCNCC(C)O (stereo not given),i,-8.0,1.7,-8.6,14.8,9.1,0.3,0.2,
O=C(Nc1ccc(OCC(F)(F)C(F)F)cc1)c1ccncc1,i,u,-1.2,-15.1,-12.9,-5.2,-17.8,8.8,
O=C(Nc1ccc(S(=O)(=O)Nc2ncccn2)cc1)C1=NN(c2ccccc2)C(=O)CC1,i,-17.2,28.7,-9.4,25.8,-3.2,7.8,-8.8,
C[C@H](NC(=O)c1nc[nH]c1C(=O)NCCCCCN)C(=O)OCc1ccccc1,i,-14.4,x,1.5,x,1.4,0.6,-0.3,
CCN(CC)C(=O)CSc1nc2ccccc2c(=O)n1CCC(=O)NCc1ccc(F)cc1,i,-40.1,-7.7,5.8,5.0,2.7,3.7,4.7,
Cc1ccc(NS(=O)(=O)c2ccc3c(c2)n(C)c(=O)c(=O)n3C)c(C)c1,i,-2.1,1.3,-7.2,4.3,1.6,-1.6,7.3,
CC(C)c1ccc2[nH]c(O)c(N=NC(=O)c3cccc(S(=O)(=O)Nc4ccccc4Cl)c3)c2c1,i,23.5,2.1,x,6.0,3.6,-0.9,10.0,
Cc1ccc(-n2nc(C)c(C(=O)O)n2)c(C)c1,i,24.1,-0.6,-4.7,30.8,2.7,-0.3,-3.8,
CCS(=O)(=O)Nc1ccc(C(=O)OC)cc1,i,-218.2,12.4,-3.5,1.5,2.7,4.0,-11.4,
Cc1ccc(-c2cc(-c3cccc(F)c3)n[nH]2)c(O)c1,i,x,-1.2,-16.7,-7.3,0.2,0.4,-1.6,
CCOc1ccc2nc(NCCNC(=O)C3CC3)c(C)cc2c1,i,3.8,3.1,-10.1,5.7,2.7,-1.7,-5.9,

# A stretch from further up, as a working copy:
SMILES,Rce1 inhib,HIV Env fusion,eIF4H inh,UUG fidelity,PABP polyA inh,MT1-MMP act inh,MT1-MMP act inh RFP,CSC inhib,others
O=C(Nc1ccc(OCC(F)(F)C(F)F)cc1)c1ccncc1,i,u,-1.2,-15.1,-12.9,-5.2,-17.8,8.8,
O=C(Nc1ccc(S(=O)(=O)Nc2ncccn2)cc1)C1=NN(c2ccccc2)C(=O)CC1,i,-17.2,28.7,-9.4,25.8,-3.2,7.8,-8.8,
C[C@H](NC(=O)c1nc[nH]c1C(=O)NCCCCCN)C(=O)OCc1ccccc1,i,-14.4,x,1.5,x,1.4,0.6,-0.3,

# New compounds follow:
SMILES,Rce1 inhib,HIV Env fusion,eIF4H inh,UUG fidelity,PABP polyA inh,MT1-MMP act inh,MT1-MMP act inh RFP,CSC inhib,others
CCCCNC(=O)/C(C#N)=C/c1ccc2c(c1)OCCO2,i,-1.0,-12.3,x,-1.8,2.5,2.6,14.3,
Cc1nn(-c2ccccc2)c2nc(N)c(C#N)c(-c3ccc(C(C)(C)C)cc3)c12,i,12.0,-1.0,x,-2.2,3.3,-4.0,93.6*,
Oc1cccc(NC(=S)Nc2ccc(SC(F)F)cc2)c1,i,20.2,u,x,-3.1,7.1,0.6,-2.4,
FC(F)(F)c1cc(Sc2ccccc2)nc(-c2ccccn2)n1,i,-1.7,-6.1,-28.1,1.4,-3.4,-1.4,-8.8,
CCCn1c(-c2ccc(OC)cc2)nc2c(=O)n(C)c(=O)[nH]c21,i,x,2.1,-10.2,-10.1,0.3,-0.7,-12.9,
CCOC(=O)C(CCCCP(=O)(c1ccccc1)c1ccccc1)(NC(C)=O)C(=O)OCC,i,-10.0,-0.9,-2.8,-5.7,0.2,0.5,-12.5,
Cc1cc(C)c2cc3c(N)c(C(=O)Nc4c(C)[nH]c(=O)[nH]c4=O)sc3nc2c1,i,-11.5,10.3,-16.9,-4.0,-4.3,4.9,-3.5,
O=C(NCC12CC3CC(CC(C3)C1)C2)c1nn2cccnc2c1Cl,i,-47.7,-1.1,-9.1,-3.1,-2.2,0.0,-16.4,
Cc1onc(-c2ccccc2)c1C(=O)NCCc1ccc(Cl)cc1,i,x,2.7,x,9.7,-1.7,-6.4,-23.6,
COc1cccc(NS(=O)(=O)c2cc3c(cc2C)N(C(C)=O)CCO3)c1,i,-15.0,-15.9,-11.9,-10.6,12.8,8.2,-1.4,
Cn1c(=O)c2c(nc(-n3ccnc3)n2C)n(C)c1=O,i,x,-6.0,-31.0,7.7,2.0,2.5,-5.2,
NS(=O)(=O)c1ccc(-c2ccc(C=O)o2)cc1,i,-14.5,-4.0,x,-2.3,1.3,-0.5,1.1,
CCc1ccccc1NC(=O)CCC(=O)c1cccs1,i,-3.1,-13.8,-10.4,8.5,-1.8,1.9,1.6,
CC(OC(=O)Cn1cnc2ccccc2c1=O)C(=O)NCc1ccccc1 (stereo not given),i,2.4,x,-14.7,x,3.3,4.7,-7.4,
O=S(=O)(Nc1ccon1)c1ccc(F)c(F)c1,i,-10.4,-3.5,-11.9,4.3,-0.5,2.5,-2.1,
CNC(=O)c1cc(C(=O)c2ccc(Cl)cc2)c(Br)[nH]1,i,7.4,-5.3,-5.4,-0.1,4.6,6.0,2.8,
Cc1ccc(NC(=O)c2cc(N3C(=O)CCC3=O)ccc2N2CCOCC2)cc1,i,0.6,-3.7,x,5.6,-1.0,-0.3,-13.4,
Cc1cccc(C(=O)N2CCN=C2SCc2ccc([N+](=O)[O-])cc2)c1,i,1.7,-1.0,x,0.1,1.0,-1.6,0.3,
O=C(CCCn1c(=O)[nH]c2cc(Cl)ccc2c1=O)NCC1CCCO1 (stereo not given),i,x,3.5,-5.1,2.4,4.1,0.6,-8.5,
